RGS16-Gao HTS – modulates binding between human RGS16 and Galphao; O15492+P09471; bead-based flow cytometry RGS16-Galphao binding, fluorescence; actives lie on both sides; binding response (% of control), % at 10 µM; hit rate 0.38% among 220,000; AID 1441;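 active = below 25% or above 175%, edge rows of some plates excepted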;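 also: Galphao activated by GDP with aluminum fluoride before binding; 100% = wells without compound and 0% = beads without RGS; some results beyond the cut were filed as inactive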
HSV replic up – increases HSV replication in cells | maximum fold increase | hit rate 0.005% among 220,000 | HSV replication augmentation in cells, fold increase | AID 1956;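 active = peak rise of 1.5-fold or more in the series; tested in PC3 cells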;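 also: first round at 10 µM; read as green reporter fluorescence; hits show the peak of a series up to 25 µM; 1 = signal of infected wells without compound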
Insulin prom inh – TRM-6 insulin promoter activity inhibition; TRM-6 cells (human fetal islet line), insulin promoter-eGFP reporter, imaging; reporter expression induced with tamoxifen; inhibition, % at 2 µM; hit rate 0.9% among 130,000; AID 1273;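 active = inhibition above the mean plus 3 SD, with well images judged a real hit on visual review, cut at about 60% in these data, passing the limit was not always enough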
PKD1 kinase inh – blocks activity of human protein kinase D1; PKD1 kinase fluorescence polarization assay; hit rate 0.056% among 200,000; inhibition, %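 (about 10 µM by stock and volumes)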; Q15139;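 active = inhibition of 50% or more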;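 also: controls were vehicle for no effect and a reference inhibitor for full effect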
Target sequence (Q15139 whole entry, looked up): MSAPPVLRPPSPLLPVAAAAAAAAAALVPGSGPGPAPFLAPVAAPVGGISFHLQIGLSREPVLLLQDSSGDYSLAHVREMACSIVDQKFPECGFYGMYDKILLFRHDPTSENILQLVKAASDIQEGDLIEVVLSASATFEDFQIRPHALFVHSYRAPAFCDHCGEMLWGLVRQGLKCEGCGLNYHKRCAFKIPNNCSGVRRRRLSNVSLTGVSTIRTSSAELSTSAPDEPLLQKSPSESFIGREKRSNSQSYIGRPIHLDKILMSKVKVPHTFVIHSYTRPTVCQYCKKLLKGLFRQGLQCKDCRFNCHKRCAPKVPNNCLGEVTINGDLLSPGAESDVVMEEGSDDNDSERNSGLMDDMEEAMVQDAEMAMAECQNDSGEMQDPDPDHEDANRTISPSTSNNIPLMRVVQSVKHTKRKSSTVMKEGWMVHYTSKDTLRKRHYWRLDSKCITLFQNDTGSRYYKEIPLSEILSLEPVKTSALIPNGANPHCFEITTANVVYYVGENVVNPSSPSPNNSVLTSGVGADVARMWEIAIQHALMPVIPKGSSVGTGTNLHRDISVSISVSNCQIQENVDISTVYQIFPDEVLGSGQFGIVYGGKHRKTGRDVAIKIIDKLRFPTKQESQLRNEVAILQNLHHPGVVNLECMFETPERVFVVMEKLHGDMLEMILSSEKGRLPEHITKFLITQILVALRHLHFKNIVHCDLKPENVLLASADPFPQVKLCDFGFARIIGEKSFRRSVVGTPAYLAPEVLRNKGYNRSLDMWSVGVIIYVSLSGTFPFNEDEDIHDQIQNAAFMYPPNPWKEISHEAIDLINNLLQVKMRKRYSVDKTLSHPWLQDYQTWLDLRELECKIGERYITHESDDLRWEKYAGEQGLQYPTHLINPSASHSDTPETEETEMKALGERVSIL
GALR2 agonist – agonists of human galanin receptor 2 (GALR2); GALR2-expressing cells, agonist activation read-out; activation, %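 (tested at 5 µM)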; hit rate 0.48% among 140,000; AID 803;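 active = above mean plus 3 SD of all compounds, about 5% in these data, not always enough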;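 also: 0% = vehicle buffer wells and 100% = reference agonist at full effect; tested in CHO reporter cells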
Insulin prom inh cell count – second read-out of Insulin prom inh, no call of its own (marks repeat the call); normalized cell count, %; measured here: cell count, toxicity; reference of the scale not given here;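 cells exposed to compound for 48 h; stained nuclei by imaging scaled within each plate; lower means fewer cells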
HSV replic up primary fold – also measured in HSV replic up; calls as there; fold increase; compound at 10 µM; measured here: primary screen fold increase 10 uM; tested in PC3 cells;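 GFP signal in the first replicate; 1 = infected wells without compound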
* hit, by the source's call; i = inactive; / = no result given.

mol,GALR2 agonist,Insulin prom inh cell count,PKD1 kinase inh,HSV replic up,HSV replic up primary fold,Insulin prom inh,RGS16-Gao HTS
CSc1sc(C(=O)NCC2CC2)c2c1S(=O)(=O)N(C)c1ccccc1-2,/,/,/,i,1,/,96
CCCCOC(=O)n1c(SCC(=O)N(C)C)nc2ccccc21,0.1,58,-17,i,1,0,103
Cc1cccc2sc(N(CCCN(C)C)C(=O)c3nc4ccccc4s3)nc12,0.0,59,4,i,1,4,135
CC1CCc2nc3ccc(S(=O)(=O)N4CCC(C(=O)NC5CCCC5)CC4)cc3c(C(=O)O)c2C1 (stereo unspecified),0.2,/,2,i,0.99,/,80
Cc1ccc2cc(CN(CC3CCCO3)C(=O)Nc3ccccc3F)c3nnnn3c2c1 (stereo unspecified),/,109,0,i,1,-20,110
Cc1cc(C)nc(N2CCCC(C(=O)Nc3nnc(C(C)C)s3)C2)n1 (stereo unspecified),-2.1,49,-6,i,0.99,66,100
O=C(O)c1ccccc1C(=O)N1CCN(C(=O)c2ccccc2Cl)CC1,/,114,0,i,0.82,-7,105
Cn1ncc(Cl)c1C(=O)NC(=S)Nc1sc2c(c1C#N)CCCCC2,-3.6,/,2,i,1.1,/,148
OC(CNCCc1ccccc1)COc1ccc(OCC(O)CNCCc2ccccc2)cc1 (stereo unspecified),/,/,/,i,0.68,/,86
COc1cccc(CNC(=O)CSc2ccc(-c3ccncc3)nn2)c1,/,69,-1,i,0.85,0,170
O=C(CCN1C(=O)C2C3C=CC(C3)C2C1=O)NCc1cccnc1 (stereo unspecified),-0.8,174,8,i,0.95,-100,100
COc1ccc(CN(CC2CCC(C(=O)O)CC2)C(=S)Nc2cc(Cl)ccc2OC)cc1 (stereo unspecified),/,/,-5,i,1.1,/,105
O=C(/C=C/c1ccccc1)Oc1ccccc1C(=S)N1CCOCC1,/,/,-4,i,0.97,/,103
O=C(Nc1nccs1)C1CC(=O)N(c2ccc(Cl)cc2)C1 (stereo unspecified),/,133,-4,i,0.99,-41,108
C=CCc1cc(C)ccc1OCCn1ccnc1,-0.8,76,9,i,1,-44,106
CCNC(=O)CSc1ncnc2sccc12,-2.5,106,2,i,0.88,-79,97
COC(=O)c1c(C)oc2ccc(N(C(=O)c3ccncc3)S(=O)(=O)c3ccc(C)cc3C)cc12,-0.6,150,-1,i,0.91,19,106
CCOC(=O)/C(C#N)=C/Nc1cc(C(C)(C)C)sc1C(C)=O,/,/,/,i,0.96,/,104
C=CCc1cc(C)ccc1OCCOCCC(C(=O)OCC)C(=O)OCC,-0.6,93,3,/,/,-31,103
CCC(O)C1CCN(C(=O)c2cc(COc3ccc4ncccc4c3)on2)CC1 (stereo unspecified),/,95,-4,i,0.75,0,109

Continued.
mol,GALR2 agonist,Insulin prom inh cell count,PKD1 kinase inh,HSV replic up,HSV replic up primary fold,Insulin prom inh,RGS16-Gao HTS
C=CCn1c(COc2ccc(F)cc2)nnc1SCC(=O)N1CC(=O)Nc2ccccc21,-1.1,138,-1,i,0.92,-15,95
O=c1[nH]c2ccc(NS(=O)(=O)c3ccc4ccccc4c3)cc2[nH]1,/,/,-6,i,0.97,/,96
COC(=O)[C@H](Cc1ccccc1)NC(=O)N1CCC(C)CC1,-1.6,91,3,i,0.98,-18,92
COCC(=O)NC1CC2CCC(C1)N2C(=S)Nc1ccccc1C(=O)OC (stereo unspecified),/,100,-10,i,1.1,0,95
O=C1COc2ccc(C(=O)NCc3ccco3)cc2N1,-2.5,111,5,i,1,69,98
N=c1sccn1CC(=O)Nc1ccc(S(N)(=O)=O)cc1,/,/,/,i,1.2,/,101
Cc1c(Cl)sn(-c2ccc(Cl)cc2)c1=O,/,/,-2,i,0.93,/,67
COC(=O)CSc1cc([N+](=O)[O-])ccc1NC(=O)OC,/,155,-11,i,0.99,14,104
CN(C)c1nc(-c2ccccn2)nnc1-c1ccccc1,-4.6,90,-6,i,0.57,-4,101
O=c1c2ccccc2nc(SCc2ccc(F)cc2Cl)n1CCCN1CCOCC1,/,/,/,i,0.82,/,104
CSc1ccccc1OC1CCN(Cc2ccccc2)CC1,-0.9,102,4,i,0.82,-22,108
O=c1c2ccc([N+](=O)[O-])cc2ncn1CCOc1cccc(Br)c1,/,/,-5,i,0.95,/,108
CC(C)(C)c1cc(C(=O)NNC(=O)Nc2cccc(Cl)c2)n(Cc2ccccc2)n1,/,/,/,i,1.2,/,98
COc1cc(C2(O)CCCCC2C)cc(OC)c1OC (stereo unspecified),-1.1,129,-7,i,0.92,-8,105
COCCn1c(SCC(=O)Nc2ccc3c(c2)CCC3)nc2ccccc2c1=O,-0.5,117,0,i,0.93,-1,104
COc1ccccc1C1=NOC(Cn2c(NCC3CCCO3)nc3c2c(=O)n(C)c(=O)n3C)C1 (stereo unspecified),/,/,/,i,0.91,/,103
Cc1cccc(C(=O)OCC(=O)NC(C)CCc2ccccc2)c1 (stereo unspecified),/,/,-5,i,0.94,/,101
Nc1nnc(CCS(=O)(=O)c2cc(Cl)ccc2Cl)s1,-0.3,/,-9,i,0.75,/,103
CCCCOc1cccc(OCCCC)c1C(=O)Nc1cc(C)on1,-1.5,142,-3,i,1,-46,101
CC1(C)CC(NC(=O)CCC2CCCC2)CC(C)(C)N1,-0.2,140,-3,i,0.94,52,97

Later entries:
mol,GALR2 agonist,Insulin prom inh cell count,PKD1 kinase inh,HSV replic up,HSV replic up primary fold,Insulin prom inh,RGS16-Gao HTS
O=C1O/C(=C/c2ccccc2)c2ccccc21,-0.6,/,3,i,0.99,/,108
CCOc1ccc2nc(NCCNC(=O)Nc3cccc(C)c3)c(C#N)cc2c1,0.2,69,-8,i,0.89,-109,98
Cc1cc(SCC(=O)Nc2cccc(S(=O)(=O)NC3=NCCCCC3)c2)c(C)cc1Br,-1.9,112,-4,i,0.97,-15,115
CCN(CC)S(=O)(=O)c1ccc2[nH]cc(C(=O)NCCCN3CCCCC3)c(=O)c2c1,-0.1,128,-9,i,0.92,7,99
COc1cccc(C(=O)N(c2ccccc2)C2C=CS(=O)(=O)C2)c1 (stereo unspecified),/,126,-4,i,1,33,108
COC(=O)c1ccc2c(c1)C(=O)/C(=C/c1ccc(O)cc1)O2,-2.0,54,-5,i,0.99,12,93
CCC(C)(C)NC(=O)CCn1c(-c2ccccc2)cc(C(C)=O)c1C,/,134,-12,/,/,-79,101
CCOC(=O)c1[nH]c2c(c1-c1ccccc1)C(=O)CC(c1ccccc1)C2 (stereo unspecified),0.7,90,8,/,/,22,108
O=C(CCc1nc(-c2ccc(Cl)cc2)no1)NCC1CCCO1 (stereo unspecified),/,/,2,i,0.93,/,101
Cc1ccc(-c2nnc(N3CCOCC3)c3ccccc23)cc1S(=O)(=O)NCc1cccnc1,/,/,-7,i,0.82,/,97
CC(C)(C)C(=O)COC(=O)c1c2c(nc3ccccc13)CCC2,/,/,-7,i,1.1,/,98
CCCCCCC1NC(C(=O)O)CS1 (stereo unspecified),0.8,85,0,i,0.82,-12,109
O=C(NCc1ccccn1)C(=O)NCC(c1ccco1)N1CCOCC1 (stereo unspecified),/,/,5,i,0.82,/,97
Cc1ccc2ncnc(Nc3ccc(C)c(C)c3)c2c1,-4.4,138,3,i,0.75,-3,108
Cc1ccc2c(c1)nnn2C1CCN(CC(=O)NNC(=O)c2ccco2)CC1,/,65,10,i,0.97,-41,97
C=CCOC(=O)C(C#N)c1nc2ccccc2nc1N1CCN(Cc2ccccc2)CC1 (stereo unspecified),-1.3,124,-6,i,0.87,-21,153
O=C(NCc1ccco1)c1cccc(S(=O)(=O)N2CCc3ccccc32)c1,0.3,/,-1,i,1.1,/,108
COc1ccc(Br)cc1/C=N/NC(=O)c1cc(OC)c(OC)c(OC)c1,-0.8,151,38,i,0.74,0,105
Cc1nc2cc(-c3ccccc3)nn2c(C)c1CCC(=O)NC(C)c1ccc2c(c1)OCCO2 (stereo unspecified),-0.5,142,9,/,/,0,100
N#C/C(=N\Nc1ccc(Cl)cc1)C(=N)N1CCCCCC1,/,/,-7,i,0.86,/,95

Taken from above for reference:
mol,GALR2 agonist,Insulin prom inh cell count,PKD1 kinase inh,HSV replic up,HSV replic up primary fold,Insulin prom inh,RGS16-Gao HTS
O=C1O/C(=C/c2ccccc2)c2ccccc21,-0.6,/,3,i,0.99,/,108
CCOc1ccc2nc(NCCNC(=O)Nc3cccc(C)c3)c(C#N)cc2c1,0.2,69,-8,i,0.89,-109,98

Following part
mol,GALR2 agonist,Insulin prom inh cell count,PKD1 kinase inh,HSV replic up,HSV replic up primary fold,Insulin prom inh,RGS16-Gao HTS
CN(C)S(=O)(=O)c1cc(NC(=O)COC(=O)c2ccc3c(c2)OCO3)ccc1Cl,-0.5,/,6,i,1.1,/,100
CC(=O)/C(=N/Nc1ccccc1)Sc1nnc(CCc2ccccc2)n1-c1ccccc1,0.1,134,0,i,0.96,-18,97
CCOC(=O)c1sc2c(c1C)c(=O)c(C(=O)OCC)cn2CC,-0.5,/,3,i,1.1,/,85
Cc1ccccc1NC(=O)C1CCN(c2cc(-c3ccccc3)nc3ncnn23)CC1,-0.7,135,6,i,0.9,33,108
Cc1ccccc1N1C(=O)C2ON(c3ccccc3)C(c3ccncc3)C2C1=O (stereo unspecified),-1.0,/,-8,i,0.9,/,101
CC1=C(C(=O)N2CCCCCC2)C2(CCC(C)CC2)OC1=O (stereo unspecified),-1.1,/,-2,i,0.96,/,102
COc1ccccc1N(CC(=O)NCc1ccco1)S(C)(=O)=O,/,/,9,i,1.1,/,108
COc1cc2c(cc1OC)C(C)N(C(=O)c1cc3n(n1)C(C(F)(F)F)CC(c1ccco1)N3)CC2 (stereo unspecified),-1.4,72,3,i,1,-25,110
CCOc1ccc2c(c1)nc(SCC(=O)c1ccc(Br)s1)n2C,-2.3,/,3,i,0.73,/,95
CCN(CC)CCCNc1nc2cc(OC)c(OC)cc2c2nc(-c3ccccc3)nn12,1.5,93,-1,i,0.66,-38,112
Cc1ccc(C)c(-n2c(SCC(=O)N3CCC(C(=O)O)CC3)nnc2-c2cccc(Cl)c2)c1,/,111,-1,i,0.94,29,96
CC1(C)CC(=O)C(C=NCCN2CCN(C3CC(=O)N(c4ccc(Cl)c(Cl)c4)C3=O)CC2)=C(O)C1 (stereo unspecified),/,/,-5,i,0.89,/,99
NC(=O)COc1ccc(NC(=O)OCc2ccccc2)cc1,-0.8,81,5,i,0.98,0,108
CCn1c(C)nc2cc(C(=O)NNS(=O)(=O)c3ccccc3F)ccc21,-2.1,82,4,/,/,12,107
COc1ccc2c(c1OC)C(=O)OC2Nc1nc(-c2cc3cc(Br)ccc3oc2=O)cs1 (stereo unspecified),/,/,/,i,0.82,/,99
Cn1c(CSc2ncccn2)nnc1SCC(=O)N1CCCc2ccccc21,-1.2,76,4,/,/,-11,109
Cn1nnnc1SCC(=O)Nc1ccc(S(=O)(=O)N2CCOCC2)cc1,/,/,/,i,0.93,/,96
COc1ccc2nc(SCC(=O)Nc3cc(C)on3)[nH]c2c1,-0.3,88,-8,i,0.96,-6,109
CCCCNC(=O)COC(=O)c1ccccc1F,/,/,/,i,0.98,/,93
CCn1c(=O)c2cc(C(=O)N3CCN(C(=O)c4ccco4)CC3)sc2c2ccccc21,/,/,-7,i,0.71,/,116

More compounds follow.
mol,GALR2 agonist,Insulin prom inh cell count,PKD1 kinase inh,HSV replic up,HSV replic up primary fold,Insulin prom inh,RGS16-Gao HTS
Cc1[nH]nc2c1C1(CCN(C(=O)OCc3ccccc3)CC1)C(C#N)=C(N)O2,0.4,125,-4,i,0.94,-42,104
OCC1(Cc2cccc(F)c2)CCN(Cc2cccc3nccnc23)CC1,/,/,4,i,1.2,/,102
O=C(CN1CCN(Cc2ccccc2F)C1=O)NC1CCCC1,/,/,-4,i,0.91,/,96
Cc1ccc(OCC(=O)NC2CCCc3ccccc32)c(C)c1 (stereo unspecified),-1.0,/,-5,i,1,/,114
Cc1cc(C)cc(N=C(NO)c2cccc([N+](=O)[O-])c2)c1,-1.4,/,-1,i,0.82,/,94
CCN(CC)c1ccc(C(=O)OCC(=O)c2ccco2)cc1,-0.8,/,-14,i,0.97,/,107
CNc1cc(CSC)nc(SCc2ccc(Cl)cc2Cl)n1,-0.9,85,-5,i,0.88,3,84
CCSc1nc2sc3c(c2c2[n+]1CC(CBr)O2)CCCC3 (stereo unspecified),/,/,/,i,0.93,/,99

Ordered by the number under RGS16-Gao HTS (highest first): some entries from above
SMILES,RGS16-Gao HTS
Cc1ccc(OCC(=O)NC2CCCc3ccccc32)c(C)c1 (stereo unspecified),114
CCN(CC)c1ccc(C(=O)OCC(=O)c2ccco2)cc1,107
CCSc1nc2sc3c(c2c2[n+]1CC(CBr)O2)CCCC3 (stereo unspecified),99
CNc1cc(CSC)nc(SCc2ccc(Cl)cc2Cl)n1,84

High-throughput results from PubChem.
